# Bioassay records: PubChem, National Center for Advancing Translational Sciences (NCATS)
# A488 autofl: A488 region autofluorescence. max dye equivalency, M. compound autofluorescence, A488 spectral region, dye equivalency; stronger effect = higher value. 59,000 compounds, 0.1% hits; active = above 10 nM dye equivalent; inconclusive = 1 to 10 nM; inactive = 1 nM or less; about half of its hits are not listed in these tables;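 also: highest value over a series up to 38 µM; compound alone in buffer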
#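 Read-out: relative fluorescence at 480/540 nm, expressed as Alexa 488 dye-equivalent concentration from a six-point A488 standard included per plate. Conditions: 100 mM Tris, pH 8.0; 15 min incubation, room temperature.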
# A647 fluor: A647 region autofluorescence. Compound fluorescence, A647 channel (570/671 nm), Tris buffer. max dye-equivalent concentration, M. 59,000 tested, under 10 active; active means above 1 µM dye equivalent; inconclusive means 0.1 to 1 µM; inactive means 0.1 µM or less;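 also: values scaled relative to a standard on each plate; highest value over a series up to 38 µM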
#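 Compounds pinned into 100 mM Tris pH 8.0, 15 min at room temperature, then read with 570 nm excitation/671 nm emission filters. Fluorescence normalized to an on-plate six-point Alexa 647 standard curve, giving dye-equivalent concentration per compound concentration.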
# AID923: qHTS Assay for Allosteric/Competitive Inhibitors of Caspase-1: Spectroscopic Profiling in AFC Spectral Region; compound fluorescence, AFC spectral region (405/520 nm); almost no hit is shown here; Potency, µM (highest dose often 57.5 µM), inactives show top-dose fluorescence increase, most hits filed as activators; 75,000 compounds, 1.1% hits; AID 923, 2007; active = well fitted activation curve with a large enough effect; inconclusive = small, poorly fitted or top-dose-only effect;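 also: potency is read from the fitted curve at half-maximal effect; 0% is about no effect; scaled to a free AFC standard on each plate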
#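 Baseline compound fluorescence (AFC region, 405 nm ex/520 nm em) taken from the intercept of kinetic reads with 50 nM caspase-1 and 5 uM Ac-WEHD-AFC; normalized to an on-plate AFC standard curve; compounds titrated up to 57 uM.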
# Resorufin fluor: compound fluoresces in the resorufin spectral region; Compound fluorescence, resorufin region 547/598 nm, buffer; stronger effect = higher value; max dye-equivalent concentration, M; 59,000 compounds, 0.04% hits; active = above 10 nM dye equivalent; inconclusive = 1 to 10 nM; inactive = 1 nM or less; a few of its hits are not listed in these tables; also: highest value over a series up to 38 µM
#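 Read-out: intrinsic compound fluorescence at ex 547/em 598 nm after 15 min at RT in pH 8.0 Tris (100 mM). Values expressed as resorufin-equivalent concentration from per-plate standard series.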
# TSHR agonist: TSH receptor (human) agonism. 73,000 compounds, 0.48% hits. Potency, µM (highest dose often 57.1 µM), without a hit: at the top dose activation, usual class: activators. HEK293-CNG-TSHR cells (CNG channel as cAMP sensor), membrane potential dye, cAMP. AID 926. P16473; active = well fitted activation curve of enough size with the parental cells flat; inconclusive = any curve in the parental cells; inactive = parental cells flat and receptor cells flat or falling; also: potency is read from the fitted curve at half-maximal effect; % of control where 0% means no effect; weak receptor curves with flat parental cells got no call and are not listed
# Target sequence (P16473 whole entry, looked up): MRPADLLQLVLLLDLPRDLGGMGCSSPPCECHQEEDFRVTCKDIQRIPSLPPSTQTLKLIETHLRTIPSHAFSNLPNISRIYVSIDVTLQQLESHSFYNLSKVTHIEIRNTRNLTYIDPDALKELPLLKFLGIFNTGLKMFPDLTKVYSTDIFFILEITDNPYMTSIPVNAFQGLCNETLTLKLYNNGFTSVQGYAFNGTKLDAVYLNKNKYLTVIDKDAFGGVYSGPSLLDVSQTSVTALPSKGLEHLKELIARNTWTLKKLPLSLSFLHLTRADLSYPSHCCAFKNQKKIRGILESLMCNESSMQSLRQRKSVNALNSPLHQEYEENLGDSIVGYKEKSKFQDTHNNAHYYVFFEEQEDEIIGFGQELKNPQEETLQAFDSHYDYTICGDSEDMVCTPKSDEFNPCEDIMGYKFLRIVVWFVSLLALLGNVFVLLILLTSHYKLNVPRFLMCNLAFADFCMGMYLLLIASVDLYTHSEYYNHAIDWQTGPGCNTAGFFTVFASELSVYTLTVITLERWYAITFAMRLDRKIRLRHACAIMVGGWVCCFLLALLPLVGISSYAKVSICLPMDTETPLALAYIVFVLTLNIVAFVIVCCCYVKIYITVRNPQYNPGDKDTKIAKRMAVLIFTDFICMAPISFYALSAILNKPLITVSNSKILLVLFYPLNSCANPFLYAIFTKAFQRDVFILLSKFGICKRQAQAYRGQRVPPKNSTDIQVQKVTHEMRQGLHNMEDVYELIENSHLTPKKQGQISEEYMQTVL
#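 cAMP rise detected as CNG-channel membrane depolarization by fluorescent dye (emission 590 nm), 30 min after compound, following 60 min dye loading containing 100 uM RO 20-1724 at room temperature. Cells: TSHR/CNG HEK 293, with parental CNG HEK 293 as control.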
# * marks the source's active call; other numbers are inactive results; i = inactive; ? = inconclusive; . = not tested or not shown; & = joins results of further samples; [ ] = remark or other dose. Not all compounds are listed; count on the stated rates, not on these rows.
SMILES,A488 autofl,A647 fluor,AID923,Resorufin fluor,TSHR agonist
Cc1cc(N2CCN(C(=O)c3ccco3)CC2)n2ncnc2n1,i,2.08e-08,-1.3%,i,2.4%
Cc1csc(NC(=O)c2cc3c(s2)CCC3)n1,i,1.55e-08,-8.2%,i,9.9%
CN(C)C(=O)N1CCC(C(=O)NC2CCCCCCC2)CC1,i,2.11e-08,-0.8%,i,8.2%
O=C(O)CSc1nnc(CNc2ccc(Cl)cc2)n1Cc1ccccc1,i,8.2e-09,-3.0%,i,?
CS(=O)(=O)N1CCC[C@@]2(CCN(C(=O)Nc3cccc(C#N)c3)C2)C1,i,5.7e-09,0.2%,i,-3.1%
COc1ccc(C2C(C(C)=O)=C(O)C(=O)N2CCCn2ccnc2)cc1OC (stereo not given),i,1e-09,1.0%,i,1.4%
COc1ccc(-n2c(CNC(=O)c3cc(OC)c(OC)c(OC)c3)n[nH]c2=S)cc1,i,2.41e-08,-1.5%,i,-3.2%
COc1ccc(OC)c(C2=NOC(C(=O)Nc3c(C)n(C)n(-c4ccccc4)c3=O)C2)c1 (stereo not given),.,.,-1.5%,.,4.0%
COc1ccc(-c2coc3cc(O)ccc3c2=O)cc1,i,5.5e-09,-1.6%&0.3%,i,-5.2%
O=C(CC1OC(=O)c2ccccc21)c1ccco1 (stereo not given),i,1.09e-08,-2.1%,i,-6.4%
O=C(Nc1nnc(C2CCCCC2)s1)c1ccco1,i,1e-09,-1.2%,i,-10.5%
Cc1nonc1NC(=O)OC1CCCCC1,i,3.8e-09,1.8%,i,0.7%
COc1cc2nc(C3CCC3)n(NC(=O)COc3ccccc3)c(=O)c2cc1OC,i,1e-09,1.1%,i,?
Cc1ccc(Nc2cc(=O)n(C3CCCCC3)c(=O)[nH]2)cc1C,i,2.23e-08,0.7%,i,13.8%
NC1=N[C@H](c2ccc(Cl)cc2)N(c2ccc(S(=O)(=O)Nc3ncccn3)cc2)C(N)=N1,i,6.9e-09,-2.0%[11.5 µM],i,0.4%[11.4 µM]
COc1cc2c(cc1NC(=O)c1cccnc1)CCCC2,i,1e-09,0.7%,i,1.6%
O=S(=O)(c1cccs1)N1CCc2ccccc21,i,4.61e-08,0.3%,i,13.8%
O=C(CN1CCC(C(=O)c2ccc(F)cc2)CC1)Nc1ccccc1,i,1.69e-08,0.5%,i,7.4%
COc1ccc(NC(=O)CN2CCN(CC(=O)Nc3ccccc3Cl)CC2)cc1,i,4e-09,-1.4%,i,14.0%
O=C1NCCN1c1ncc([N+](=O)[O-])s1,i,3.86e-08,-1.1%[25.7 µM],i,.
CN1CCN([C@@H](c2ccccc2)c2ccc(Cl)cc2)CC1,i,1.52e-08,-1.2%[25.7 µM],i,.
Cc1ccc(NC(=O)COC(=O)C2CC2C)c(S(=O)(=O)N2CCCCC2)c1 (stereo not given),i,2.51e-08,-1.3%,i,2.8%
COc1ccc2nc(NC(=O)c3cccc(OCc4c(C)noc4C)c3)sc2c1,i,5.25e-08,11.2%,i,?
Cc1cc2c(c(C)nn2-c2ccccc2)c(=O)o1,i,1.26e-08,2.5%,i,0.0%
O=C1c2cccnc2C(O)N1Cc1cccs1 (stereo not given),i,3.17e-08,-0.2%,i,2.2%
CCOC(=O)Cc1csc(NC(=O)CCN2C(=O)c3ccccc3C2=O)n1,.,.,4.0%,.,2.5%
Cc1sc2nc(SCC(=O)NCc3ccco3)[nH]c(=O)c2c1C,.,.,2.5%,.,6.4%
COc1ccc(C(=O)CSc2nc(C)cc(=O)[nH]2)cc1,.,.,-2.1%,.,?
COc1ccc(NC(=O)Nc2cccc(C(=O)N3CCOCC3)c2)cc1OC,i,1e-09,.,i,.
c1ccc2cc(NCNc3ccc4ccccc4c3)ccc2c1,i,7.5e-09,1.6%[11.5 µM],i,-1.4%[11.4 µM]
CC(NC(=O)c1ccc(S(=O)(=O)N(C)C)cc1)c1ccccc1 (stereo not given),i,1e-09,0.8%,i,-3.6%
CCn1c(O)c(/C=N/n2cnnc2)sc1=S,i,1.37e-08,0.7%,i,7.3%
O=C(Cn1cnc2c(cnn2-c2ccc(F)cc2)c1=O)N1CCCc2ccccc21,i,4.82e-08,1.9%,i,23.7%
CCCCC(=O)Nc1ccc2c(c1)nc1n2CCSC1,i,1.59e-08,5.7%,i,-8.5%
COc1ccc(-c2nn3c(-c4cccc(C)c4)nnc3s2)cc1OC,i,4e-09,-2.6%,i,?
Cc1ccc(-c2csc3nnc(SCC(=O)Nc4cccc(C)n4)n23)cc1,i,1.2e-09,0.9%,i,8.3%
Cc1ccc(C(=O)NCc2cccs2)cc1S(=O)(=O)N1CCCCC1,i,3.09e-08,-1.9%,i,4.2%[11.4 µM]
O=C(NCc1cccs1)C1CCC(CNS(=O)(=O)c2cccs2)CC1 (stereo not given),i,3.08e-08,-1.3%,i,7.3%[11.4 µM]
O=C(CCCn1c(=O)[nH]c2ccccc2c1=O)NC1CCCCCC1,i,1e-09,1.3%,i,8.3%
O=C(Nc1nnc(C23CC4CC(CC(C4)C2)C3)s1)c1ccco1,i,6.5e-09,-2.8%,i,-9.9%
COc1ccc(NC(=O)CSc2nnc(-c3ccccc3C)n2N)cc1OC,i,1e-09,-0.7%,i,1.0%
CCN1C(=O)C2C(c3ccccc3F)NC(Cc3ccc(O)cc3)(C(=O)OC)C2C1=O (stereo not given),i,3.5e-09,0.4%,i,5.1%
COc1cccc(NC(=O)Cn2nnc(C(=O)Nc3ccccc3)c2N)c1,i,3.5e-09,0.5%,i,-11.8%
CCCCOC(=O)C1Cc2ccccc2C(=O)O1 (stereo not given),i,1e-09,-0.2%,i,5.5%
CCOC1(OCC)N=C(N)C2(C#N)C(c3ccc(NC(C)=O)cc3)C12C#N (stereo not given),i,2.27e-08,8.5%,i,-1.3%
COc1ccccc1-c1nc(C#N)c(N2CCN(C(c3ccccc3)c3ccccc3)CC2)o1,i,1.57e-08,0.1%,i,22.5%
CCC1=C(C[C@H]2NCCc3ccccc32)C[C@@H]2c3cc(OC)c(OC)cc3CCN2C1,i,3.92e-08,-1.1%[11.5 µM],i,?
N#Cc1ccc(-c2ccco2)nc1SCC(=O)c1ccc(Cl)cc1,i,1e-09,.,i,.
O=C(NC1CCCCCC1)C1CCCN(S(=O)(=O)c2cccs2)C1 (stereo not given),i,4.4e-09,0.6%,i,10.5%
O=C(c1ccncc1)N1CCC[C@@]2(CCN(Cc3ccncc3)C2)C1,i,1e-09,3.0%,i,-0.1%
# (list continues)
SMILES,A488 autofl,A647 fluor,AID923,Resorufin fluor,TSHR agonist
CCOC(=O)N1CCN(CCC(=O)Nc2ccc(OC(F)(F)F)cc2)CC1,i,1.4e-09,0.1%,i,0.5%
CC(=O)c1cc2c(cc1NC(=O)CSc1nnc(C)s1)OCO2,i,1e-09,1.0%,i,1.3%
Fc1ccc(-c2nc3nc4ccccc4nc3n2Cc2ccco2)cc1,i,2.76e-08,2.1%,i,?
Cn1c(=O)cc(OCCCC(=O)N2CCCCC2)c2ccccc21,i,1.37e-08,-0.3%,i,2.1%[11.4 µM]
O=C(CCCCCN1C(=O)c2ccccc2C1=O)Nc1ccc(S(=O)(=O)N2CCCCC2)cc1,i,1.4e-09,-0.6%,i,14.8%
CCCCN(C)C(=O)c1ccc(CS(=O)(=O)c2ccccc2C)o1,.,.,-1.2%,.,15.1%
O=C(Cc1cccs1)Nc1nnc(SCC(=O)N2CCCCC2)s1,i,1.92e-08,1.7%,i,-4.4%
COc1ccc(-c2nnc3sc(-c4ccco4)nn23)cc1OC,i,2.93e-08,0.6%,i,.
CCN(CC)CCCN(C(C)=O)c1nc(-c2cc(OC)ccc2OC)cs1,i,2.15e-08,0.8%,i,?
CCNC(=O)C1CCN(S(=O)(=O)c2ccc(F)cc2)CC1,i,9e-09,0.4%,i,0.8%
CSCCC(NS(=O)(=O)c1ccc(Cl)cc1)C(=O)OCC(=O)N1CCOCC1 (stereo not given),i,1e-09,9.9%,i,1.8%
O=C(c1ccccc1S(=O)(=O)NCc1ccccc1)N1CCCCC1,.,.,0.4%,.,-16.9%
CCN(CC)S(=O)(=O)c1ccc2[nH]cc(C(=O)NCCN3CCCCCC3)c(=O)c2c1,i,7.5e-09,-2.6%,i,-7.9%
O=C(CN(Cc1ccco1)C(=O)c1cc(=O)[nH]c2ccccc12)Nc1ccccc1Br,i,1e-09,-1.0%,i,5.6%
Cc1cc(NC(=O)c2ccc3nc(-c4ccccc4)c(-c4ccccc4)nc3c2)no1,i,3.25e-08,0.2%,i,12.4%
Cc1cccc(OCc2nnc(SCc3cc(=O)n4cc(Br)ccc4n3)o2)c1,i,1.59e-08,6.0%,i,?
COc1ccc(-c2noc(-c3ccccc3F)n2)cc1,.,.,-1.3%,.,-0.3%
COc1ccc(-c2ccc3c(n2)CCCN3C[C@H](O)CN2CCCc3nc(C)c(C)cc32)cc1,.,.,3.0%[11.5 µM],.,-11.1%[11.4 µM]
CCC(Sc1nnnn1-c1ccccc1)C(=O)NC(C)c1ccccc1 (stereo not given),i,6.84e-08,-1.5%,i,1.0%
O=C(Cc1ccc(Cl)cc1)Nc1ccccc1CO,.,.,-1.8%,.,1.1%

# Of the compounds above, these contain a cyano group:
SMILES,A488 autofl,A647 fluor,AID923,Resorufin fluor,TSHR agonist
CS(=O)(=O)N1CCC[C@@]2(CCN(C(=O)Nc3cccc(C#N)c3)C2)C1,i,5.7e-09,0.2%,i,-3.1%
CCOC1(OCC)N=C(N)C2(C#N)C(c3ccc(NC(C)=O)cc3)C12C#N (stereo not given),i,2.27e-08,8.5%,i,-1.3%
COc1ccccc1-c1nc(C#N)c(N2CCN(C(c3ccccc3)c3ccccc3)CC2)o1,i,1.57e-08,0.1%,i,22.5%
N#Cc1ccc(-c2ccco2)nc1SCC(=O)c1ccc(Cl)cc1,i,1e-09,.,i,.

# Further structures follow.
SMILES,A488 autofl,A647 fluor,AID923,Resorufin fluor,TSHR agonist
O=C(O)CP(=O)(O)O,i,1e-09&6.6e-09,4.5%[11.5 µM],i,-2.8%[11.4 µM]
CCOC(=O)c1ccc(N2Cc3ccccc3C2)cc1O,i,1.39e-08,-0.6%,i,?
O=C(CCCn1c(=S)[nH]c2ccccc2c1=O)N1CCCCC1,i,1e-09,-2.0%,i,-6.6%
CCOC(=O)C(C)Sc1ncnc2c1nnn2-c1ccc(F)cc1 (stereo not given),.,.,0.9%,.,?
Cc1cc(C(=O)COC(=O)Cn2cnc3c2c(=O)n(C)c(=O)n3C)c(C)n1C,i,1e-09,0.1%,i,0.6%
O=C(c1ccncc1)N1CCC2(CC1)CN(c1ccc(-c3ccccc3)cc1)C2,i,4.9e-09,-0.8%,i,15.5%
COc1ccc(NC(=O)c2ccccc2C)c(OC)c1,.,.,1.9%,.,18.5%
CC(C)OC(=O)CSc1ncnc2c1cnn2Cc1ccccc1,i,3.43e-08,2.6%,i,13.0%
CCCSC1=C(C#N)C(c2ccccc2C)CC(=O)N1 (stereo not given),i,1e-09,1.2%,i,7.5%
Cc1ccccc1CN1CCCNC1=O,i,1.4e-09,2.6%,i,-2.9%
Cc1ccc2c(c1)c(C)c(C)n2CC(O)Cn1nc(C)c(Br)c1C (stereo not given),i,4.9e-09,-1.6%,i,?
CCCN1/C(=C(/C#N)C2=NS(=O)(=O)c3ccccc32)N(C)c2ccccc21,i,1e-09,-0.8%,i,10.7%
Cc1oc2c(C)c3oc(=O)c4c(c3cc2c1C)CCC4,i,1.22e-08,0.3%,i,?
Cc1noc(C)c1-c1cc(Nc2ccc(F)cc2)ncn1,i,1e-09,0.5%,i,6.1%
CCC(=O)Nc1nc2ccccc2n1Cc1ccc(C)cc1,.,.,0.3%,.,12.9%
CC1CCCCN1CCNC(=O)C1CCN(S(=O)(=O)c2cccc3cccnc23)CC1 (stereo not given),.,.,4.8%,.,1.7%
